StopGo reporter = lowers the luciferase signal of an FMDV 2A StopGo reporter. human cells with a luciferase reporter of 2A StopGo recoding; control for the full effect not named in the record. actives 1.2% (n = 410,000). AID 1159524. Potency, µM (doses to about 57.9 µM), for the others: at the top dose signal change, negative = less light; active = well fitted falling curve with a large enough effect; inconclusive = small, poorly fitted or top-dose-only effect; inactive = no such curve, though single readings can be large or run the other way; tested in HEK293T cells; further: nearly all actives have a fitted effect of over 45% in size; luciferase light after 4 h
RE007 growth inh = less growth of the S. pombe RE007 Vpr strain; S. pombe RE007 Vpr strain, BacTiter-Glo ATP luminescence, 24 h; control for the full effect not named in the record; Potency, µM (doses to about 92.2 µM), for the others: top-dose activity change, negative = less growth; actives 0.21% (n = 360,000); AID 651644; active = well fitted falling curve with a large enough effect; inconclusive = small, poorly fitted or top-dose-only effect; inactive = no such curve, though single readings can be large or run the other way;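 further: nearly all actives have a fitted effect of over 50% in size; the assay follows cell death caused by Vpr and the record does not say whether a fall means rescue or toxicity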
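Fission yeast strain RE007, carrying one chromosomally integrated HIV-1 vpr copy, was seeded at OD 0.01 in PMG+AL medium with 23 nL pinned compound. After 24 h at 30 °C and 99% humidity, viability was read by BacTiter-Glo luminescence.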
An asterisk follows results filed as active; u = inconclusive; & = joins results of further samples; [ ] = dose if it differs, or a comment. On the % scale 0 is the no-effect control and ±100 the full control effect; potency means the concentration at half of the fitted maximal effect. These rows are one share of the data, so the mix of outcomes need not match the whole.

Structure,StopGo reporter,RE007 growth inh
COc1ccc(C(=O)N2CCC(C)(C(=O)O)C2)c(OC)c1 (stereo not drawn),-2%,-6%[18.4 µM]
O=C(NCC1CC1)c1ccc2sc([C@@H]3O[C@H](CO)[C@H](O)[C@H](O)[C@H]3O)nc2c1,-18%,7%[18.4 µM]
O=C(Nc1ccc(Cl)cn1)c1ccccc1-c1ccccc1,-22%,-17%
COC(=O)c1c(N)[nH]c(C(=O)c2ccccc2)c1-c1ccccc1Br,-16%,12%
O=C1C[C@@H]2c3c(cccc3CN1Cc1ccccc1Br)C[C@@H](O)[C@H]2O,-8%,-15%
CCOc1ccc(S(=O)(=O)N2CCCCC2)cc1NC(=O)C1CCCC1,11%,6%
CCCCCCN1CCN(C2CN(Cc3cn(Cc4ccccc4)nn3)S(=O)(=O)C2)CC1 (stereo not drawn),-17%,-4%
O=C(OCc1ccccc1)N1C[C@H](O)[C@H](O)C[C@@H]1c1c(Cl)cccc1Br,-12%,-5%
COc1ccc(-c2c(C3=CCCCC3)oc3ccc(-c4ccc5c(c4)OCO5)cc23)cn1,-16%,1%
CCCCNC(=O)C1c2ccccc2OCC(=O)N1CCc1c[nH]c2ccccc12 (stereo not drawn),-5%,3%
CC(C)(C)C(=O)N1CCN(c2ccc3c(c2)C2CC3CCN2C(=O)OCc2ccccc2)CC1 (stereo not drawn),3%,5%
COC(=O)c1ccc2cc(OC)c(OC)cc2c1,0%,-24%
CCOC(=O)N1CCN(C(=O)C[C@@H]2C[C@@]3(C(=O)OCC)CCC=C3N(CCC3=CCCCC3)C2=O)CC1,-20%,5%
c1cc2c(cc1N1CCOCC1)CNCc1cnnn1-2,-6%,17%
CS(=O)(=O)c1ccc(C2=C(CNC(=O)c3cccnc3)[C@H]3CC[C@@H](C2)N3Cc2ccco2)cc1,-8%,-4%

Other entries
Structure,StopGo reporter,RE007 growth inh
CC1=CC(c2ccccc2)n2nc(N)nc2N1 (stereo not drawn),7%,13%
O=C(NC1CCCCC1)C(c1cccc2ccccc12)n1c(=O)c(-c2ccco2)nc2ccccc21 (stereo not drawn),4%,-6%
CSc1nc2c(=S)[nH]c(=S)[nH]c2s1,-16%,-8%
CCOC(=O)C1=CCN(S(=O)(=O)c2ccccc2Br)C1c1ccc(F)cc1 (stereo not drawn),-22%,27%
COc1ccc(S(=O)(=O)N2CCOCC2)cc1NC(=O)C1CCCCN1S(=O)(=O)c1ccccc1 (stereo not drawn),2%,-13%
O=C(NC(c1ccccc1)c1ccsc1)C1CCN(Cc2ccc(Oc3ccccc3)cc2)CC1 (stereo not drawn),-23%,-20%
CCN1C[C@@H]2[C@@H]3C(=O)N(C)C(=O)[C@@H]3[C@](CC)(C1=O)N2C(=O)c1ccc(F)cc1,-7%,3%
CCOC(=O)C1(C)CCCN1C(=O)c1ccc(OC)c(OC)c1 (stereo not drawn),-7%,16%[18.4 µM]
Cc1ccc(OCc2cc(C(=O)N3CCCC(C)C3)no2)cn1 (stereo not drawn),-20%,14%
O=C1NC(Cc2ccc(O)cc2)c2nc3cc(F)c(F)cc3c(=O)n2-c2cc3ccccc3cc21 (stereo not drawn),u,4%
CCN(CC)C1CCN(C(=O)c2ccc(OC3CCN(C(=O)CCOC)CC3)cc2)C1 (stereo not drawn),-8%,-1%
c1ccc(COc2ncnc3c2ncn3CCCN2CCN(c3ccccn3)CC2)cc1,u,-15%
OC(c1ccc(Cl)cc1)c1ncc(-c2ccc(Oc3ccccc3)cc2)[nH]1 (stereo not drawn),-17%,6%
CCOC(=O)C1(C)CCCN1C(=O)c1ccc(OC)c(F)c1 (stereo not drawn),-10%,4%[18.4 µM]
C#CCN(C[C@@H]1[C@@H](OC(=O)NCC2CCCCC2)[C@@H](OC(=O)NCC2CCCCC2)CN(C(=O)OC(C)C)N1C(=O)OC(C)C)S(=O)(=O)c1ccc(C)cc1,-30%,-2%

Sorted by count of non-hydrogen atoms (largest number first): part of the list above.
Structure,StopGo reporter,RE007 growth inh
C#CCN(C[C@@H]1[C@@H](OC(=O)NCC2CCCCC2)[C@@H](OC(=O)NCC2CCCCC2)CN(C(=O)OC(C)C)N1C(=O)OC(C)C)S(=O)(=O)c1ccc(C)cc1,-30%,-2%
O=C(NC1CCCCC1)C(c1cccc2ccccc12)n1c(=O)c(-c2ccco2)nc2ccccc21 (stereo not drawn),4%,-6%
O=C(NC(c1ccccc1)c1ccsc1)C1CCN(Cc2ccc(Oc3ccccc3)cc2)CC1 (stereo not drawn),-23%,-20%
CS(=O)(=O)c1ccc(C2=C(CNC(=O)c3cccnc3)[C@H]3CC[C@@H](C2)N3Cc2ccco2)cc1,-8%,-4%
c1ccc(COc2ncnc3c2ncn3CCCN2CCN(c3ccccn3)CC2)cc1,u,-15%
CCN(CC)C1CCN(C(=O)c2ccc(OC3CCN(C(=O)CCOC)CC3)cc2)C1 (stereo not drawn),-8%,-1%
CCN1C[C@@H]2[C@@H]3C(=O)N(C)C(=O)[C@@H]3[C@](CC)(C1=O)N2C(=O)c1ccc(F)cc1,-7%,3%
CCOC(=O)C1=CCN(S(=O)(=O)c2ccccc2Br)C1c1ccc(F)cc1 (stereo not drawn),-22%,27%
CCOC(=O)C1(C)CCCN1C(=O)c1ccc(OC)c(OC)c1 (stereo not drawn),-7%,16%[18.4 µM]
CCOC(=O)C1(C)CCCN1C(=O)c1ccc(OC)c(F)c1 (stereo not drawn),-10%,4%[18.4 µM]
CC1=CC(c2ccccc2)n2nc(N)nc2N1 (stereo not drawn),7%,13%
CSc1nc2c(=S)[nH]c(=S)[nH]c2s1,-16%,-8%

Next entries follow:
Structure,StopGo reporter,RE007 growth inh
CC(C)C[C@@H](CN1CCC[C@H]1CN1C(=O)C(=O)NC[C@@H]1Cc1ccc(O)cc1)N1C[C@H](Cc2ccc(O)cc2)N(CC2CCCCC2)C(=O)C1=O,-4%,4%
COc1ccc(Cl)cc1-c1cc(C(=O)NCc2cccc(Cl)c2)[nH]n1,8%,51%[18.4 µM]
COc1ccc(-c2nnc(SCC(=O)N(C)C3CCS(=O)(=O)C3)n2CC(C)C)cc1 (stereo not drawn),7%,-1%
COc1cc(OC)c2c(-c3ccccc3)cc(C3CCCCC3)nc2c1,-23%,u
O=C(O)c1ccsc1Cc1cccs1,-10%,-8%
COc1cc(-c2cc(NC=O)c3ncc(-c4ccccc4)n3c2)cc(OC)c1OC,-28%,9%[18.4 µM]
CC1(C(=O)NS(=O)(=O)c2ccc(Cl)s2)CCN1C(=O)Cc1ccc(Cl)cc1Cl (stereo not drawn),-6%,-3%
COCCNc1nc(Oc2ccc(CC(=O)OC)cc2)c2sc(-c3ccccc3)cc2n1,0%,-6%
Cc1ccc(S(=O)(=O)N2C[C@H]3N(C(=O)OC(C)C)N(C(=O)OC(C)C)C[C@H](OC(=O)NCc4ccccc4F)[C@@]3(O)C2)cc1,-8%,3%
N#Cc1ccccc1S(=O)(=O)N1CCN(c2nc(-c3ccccc3)nc3ccccc23)CC1,-10%,-5%
CC(O)(c1cccc(F)c1)c1nc(-c2cc(F)cc(F)c2)cs1 (stereo not drawn),-22%,u
F[B-](F)(F)c1cncc2ccccc12,-4%,-20%
CC(C)[C@H](NC(=O)OCc1ccccc1)C(=O)NC(C=O)Cc1ccccc1 (stereo partly drawn),5%,-3%[18.4 µM]
CC(=O)n1c(=O)oc2ccccc21,-16%,-4%
CCCC/C=C/[C@H](c1ccccc1)[C@H](CO)Cc1cccnc1,-12%,2%

Other compounds follow.
Structure,StopGo reporter,RE007 growth inh
CC(C)C[C@H]1CNC(=S)N1C[C@H]1CCCN1C[C@H](Cc1ccc(O)cc1)N1C[C@H](Cc2ccccc2)N(CC2CCCCCC2)C1=S,-22%,-7%
COCC(=O)N1C[C@H]2CON(C)[C@H]2C[C@H]1c1cccc(-c2ccccc2OC)c1,-8%,3%
COc1ccccc1-c1ccc([C@@H]2C[C@H]3[C@H](CON3C)CN2C(=O)c2ccco2)cc1,-13%,3%
CCCCn1nnnc1C(CC)N1CCN(C/C=C/c2ccccc2)CC1 (stereo not drawn),0%,12%
O=C(C[C@H]1CC[C@H](NC(=O)C2CCOCC2)[C@@H](CO)O1)NCc1ccncc1,-20%,0%
Cc1sc2ccccc2c1CNC[C@H]1O[C@@H](n2ccc(N)nc2=O)[C@H](O)[C@@H]1O,-9%,14%
COc1ccc([C@@H]2C[C@H]3[C@@H](CN2S(=O)(=O)c2ccccc2)C(=O)C[C@@H](c2ccccc2)N3S(=O)(=O)c2ccc(C)cc2)cc1,-20%,1%
O=C(NCCC(F)(F)F)C1Cc2c(-c3cccc(F)c3)ccnc2O1 (stereo not drawn),-13%,7%
O=C(NCCCN1CCOCC1)c1c(-c2ccccc2)oc2c1C(OCCCCCO)CCC2 (stereo not drawn),-13%,25%
Cc1ccc(S(=O)(=O)N[C@H](CO)C(C)C)cc1,-14%,-2%
C[C@@H]1CN([C@@H](C)CO)S(=O)(=O)c2ccc(Br)cc2O[C@H]1CN(C)C(=O)C1CCCCC1,-11%,-12%
Fc1cccc(Cc2c(-c3cccc(Cl)c3)nc3c4ccccc4ccn23)c1,-10%,-3%
CCCNC(=O)C1(C)CCCN(Cc2csc(-c3ccccc3)n2)C1 (stereo not drawn),-16%,-20%[18.4 µM]
O=C(c1ccccc1)N1CCC(=O)N(C(CO)Cc2ccccc2)CC1 (stereo not drawn),3%,4%
COc1ccc(NC(=O)CSc2nnc3n2CCCCC3)cc1OC,2%,2%

Next compounds follow:
Structure,StopGo reporter,RE007 growth inh
CCC(CC)C(=O)N(C)c1c(C)nc2c(OCc3cccc(Cl)c3)cccn12,u,-6%
COc1ncnc2c1ncn2CCCNCCCN1CCCC1=O,0%,-23%
Clc1cccc(Cl)c1NC1=NCCS1,-6%,31%
COc1cc(OC)cc(-c2c(Sc3ccccc3)c3cc(-c4ccc(OC)nc4)ccc3n2C)c1,-29%,0%
NC(Cc1ccc(F)cc1)c1csc(Nc2cc(Oc3ccccc3)ncn2)n1 (stereo not drawn),u,-3%
COCC1CCN(C(=O)c2cc(COc3ccc(F)cc3Cl)on2)C1 (stereo not drawn),51%[activator],2%
COc1ccc([C@H]2N[C@]3(CCCN(Cc4ccc(C)cc4)C3=O)[C@H]3C(=O)N(Cc4ccccc4)C(=O)[C@@H]23)cc1,-23%,4%
C[C@@H]1CN([C@H](C)CO)C(=O)CCCn2nncc2CO[C@H]1CN(C)S(=O)(=O)c1cccc(F)c1,-19%,-1%
Cc1nn(CC(C)C)c(Cl)c1C(=O)NCC(C)(C)N1CCOCC1,-14%,7%
COc1cccc(C#Cc2cnc3c(c2)C(=O)N([C@@H](C)CO)C[C@H](C)[C@H](CN(C)C(=O)C2CCC2)O3)c1,-22%,4%
COc1ccccc1N(CC(=O)N1CCCCC1C)S(=O)(=O)c1ccc(Cl)cc1 (stereo not drawn),83%[activator],-10%
CN(Cc1ccccc1)C(=O)c1cccc(NC(=O)Cc2cccc(NC(=O)C3CCN(C(=O)C4CC4)CC3)c2)c1,1%,-2%
CN1OC[C@@H]2CN(Cc3ccc(Cl)cc3)[C@H](c3ccc(N4CCCCC4)cc3)C[C@@H]21,-6%,-17%
CCOc1cc(N)c(Cl)cc1C(=O)NCC1CN(Cc2ccc(F)cc2)CCO1 (stereo not drawn),-14%&-17%,1%[18.4 µM]
CCc1nc2ccc(C(=O)Nc3ccc(OC)c(OC)c3)cn2c1N(C)Cc1cccs1,-6%,-23%

New compounds follow
Structure,StopGo reporter,RE007 growth inh
Fc1ccc(-c2nc3ccc(Br)cn3c2Cc2cccc(Cl)c2)cc1,-11%,9%
Cc1ccc(NC(=O)CNC(=O)C23CC4CC(CC(C4)C2)C3)nc1,-1%,-3%
NS(=O)(=O)c1ccc(CNC(=S)Nc2cc(S(=O)(=O)N3CCOCC3)ccc2Cl)cc1,-20%,-6%
Cc1cn([C@H]2C[C@H](O)[C@@H](/C=C/C(=O)NCCc3ccc4ccccc4c3)O2)c(=O)[nH]c1=O,-28%,3%
Cc1ccc(S(=O)(=O)N(C)C[C@@H]2OCCCC[C@H](C)Oc3ccc(NC(=O)Nc4ccc(F)cc4)cc3C(=O)N([C@H](C)CO)C[C@H]2C)cc1,0%,-3%
CC1(C(=O)Nc2cnc3ccccc3c2)CCN1Cc1ccccc1Cl (stereo not drawn),0%,0%
COc1ccc(NS(=O)(=O)c2cc(N=Nc3c(O)[nH]c(=O)[nH]c3=O)ccc2OC)cc1Br,35%[activator],-11%
O=CNc1cc(-c2ccc(C(=O)NC3CC3)cc2)cn2c(-c3ccccc3)cnc12,-22%,-11%[18.4 µM]
O=C(NCc1ccncc1)[C@@H]1CCCN1C(=O)[C@@H]1CCCN1C(=O)c1cccc2ccccc12,-23%,-2%
c1ccc(-c2nc(NCC3CC3)nc3ccsc23)cc1,7%,-16%
CC1(c2nc3ccccc3[nH]2)CCC2=Nc3ccccc3CN21 (stereo not drawn),-20%,u

From PubChem
